Screens (PubChem)
nsP2pro primary = inhibitors of chikungunya virus nsP2 protease; Q8JUX6; Potency, µM (highest dose often 24.9 µM), inactives show top-dose activity change, negative = inhibition, hits mostly inhibitors; hit rate 1.1% among 31,000; FRET peptide cleavage, nsP2pro, fluorescence 1 h; active means well fitted inhibition curve with a large enough effect; inconclusive means small, poorly fitted or top-dose-only effect; inactive means no such curve, though single readings can be large or run the other way; also: nearly all actives have a fitted effect of over 60% in size; a reference inhibitor and vehicle were the controls
Numbers without * were called inactive; i = inactive; ? = inconclusive; & = joins results of further samples; [ ] = remark or other dose. % is scaled to controls: 0 for no effect and ±100 for the full control effect; potency is read from the fitted curve at half-maximal effect. Only part of the results is shown; count on the stated rates, not on these rows.

Sample of the layout:
SMILES	nsP2pro primary
COC(=O)C12C(=O)C(C)=C(O)C1(C)C(C)=CC1C3(CO)CCC(O)C(C)(C)C3CCC12C (configuration not stated)	25%[10 µM]
Cc1ccccc1NC(=O)CN1C(=O)N/C(=C\c2cccn2-c2cccc(C(=O)O)c2)C1=O	i
CC(C)c1cccc(-n2cnc3cc(C(=O)N4CCCCC4)ccc32)c1	1%
CCOC(=O)c1c(C)oc2nc(C)nc(NCc3cccc(OC)c3)c12	-17%

Results, from the start:
SMILES	nsP2pro primary
COC(=O)C12C(=O)C(C)=C(O)C1(C)C(C)=CC1C3(CO)CCC(O)C(C)(C)C3CCC12C (configuration not stated)	25%[10 µM]
Cc1ccccc1NC(=O)CN1C(=O)N/C(=C\c2cccn2-c2cccc(C(=O)O)c2)C1=O	i
CC(C)c1cccc(-n2cnc3cc(C(=O)N4CCCCC4)ccc32)c1	1%
CCOC(=O)c1c(C)oc2nc(C)nc(NCc3cccc(OC)c3)c12	-17%
O=C(NCc1ccc(F)cc1)c1cc2c(s1)-c1ccccc1SC2	-9%
CCOc1ccc(Nc2nc(C)c(NC(=O)c3ccc(C)cc3)c(Nc3ccc(OCC)cc3)n2)cc1	23%
Cc1cccc(OCC(=O)NCC2(N3CCN(C)CC3)CCCCC2)c1C	-20%
COCc1nc(CCNC(=O)C2CC2)no1	-4%
Cn1cnc2c1c(=O)[nH]c(=O)n2C	-24%[10 µM]
CNC(=O)c1ccccc1Nc1nc(Nc2ccc3c(c2OC)CCC[C@H](N2CCN(CCO)CC2)C3)ncc1Cl	84%&97%[activator]
CC12CC[C@@H]3c4ccc(OS(=O)(=O)O)cc4CC[C@H]3C1CCC2=O (some centres not stated)	-5%
Cc1cc(C2CCCN2C(=O)c2ccnn2C)on1 (configuration not stated)	-1%
CCCNC(=O)N1CCC(n2c(C)cnc2C2CCOCC2)CC1	-8%
Cc1cc(C)nc(NC(=C(C#N)C#N)N2CCN(c3cccc(C(F)(F)F)c3)CC2)c1	-12%
Oc1ccc2c(-c3c(-c4ccccn4)nn4c3CCC4)ccnc2c1	20%
COc1cc(O)c(C(CC(=O)N2CCC(c3ccccc3)CC2)c2ccc3c(c2)OCO3)c(OC)c1 (configuration not stated)	-6%[39.2 µM]
COc1cc(C(=O)OC[C@@]2(O)CO[C@@H](O[C@H]3[C@H](Oc4ccc(O)cc4)O[C@H](CO)[C@@H](O)[C@@H]3O)[C@@H]2O)cc(OC)c1O	85%[activator][10 µM]
Cc1cccc(CNC(=O)C2CCN(c3nn4cc(-c5ccc(F)cc5)nc4s3)CC2)c1	-10%
CCOc1ccc(Nc2cc(C)nc3nc(Cc4ccc(Cl)cc4)nn23)cc1	-13%
CCN1C(=O)CCc2cc(NC(=O)c3ccc(F)cc3)ccc21	-18%
Cc1noc(C)c1S(=O)(=O)N1C[C@@H](C(=O)O)[C@H](c2ccccn2)C1	i
CO/N=C(/C(=O)N[C@@H]1C(=O)N2C(C(=O)OC(C)OC(C)=O)=C(COC(N)=O)CS[C@H]12)c1ccco1 (some centres not stated)	?
CC1N=C2c3ccccc3N=C(SCC(=O)NCCc3ccc(Cl)cc3)N2C1=O (configuration not stated)	-17%
O=C(CSc1nc2ccccc2nc1Cc1ccc(Cl)cc1)N1CCCc2ccccc21	-17%
Cc1ccc(CNS(=O)(=O)c2ccc3c(c2)CC(C)N3C(=O)C2CCC2)cc1 (configuration not stated)	-8%
Cn1c(CCNC(=O)CC2CCOCC2)nc2ccccc21	-9%
CCCN(CC1CCOC1)C(=O)Nc1ccc(Cl)cc1 (configuration not stated)	-6%
O=C1c2ccccc2C(=O)c2c1ccc(O)c2O	71%[activator]
COc1ccc(NC(=O)c2ccc3c(c2)N(C(=O)c2ccc(OC)cc2)CC3)cc1	-1%
Cc1ccccc1Nc1nc(C#N)nc(NC2CCCC2)n1	1%
CC(C)c1nc(CNC(=O)c2ccc(N(C)Cc3ccccn3)nc2)no1	0%
COc1cccc(CNC(=O)C2CCN(S(=O)(=O)c3c(C)noc3/C=C/c3cccs3)CC2)c1	-4%
FC(F)(F)c1ccccc1-c1nc(NCc2ccc(-c3ccc(Cl)c(Cl)c3)cc2)c2ccccc2n1	-3%
CC(=O)Nc1ccc(S(=O)(=O)NC2(C(F)(F)F)C(=O)Nc3c2c(=O)[nH]c(=O)n3-c2cccc(Cl)c2)cc1 (configuration not stated)	-16%
N#Cc1nc(-c2ccc(COc3ccc(Cl)cc3)o2)oc1N1CCCCC1	-11%
O=C(Nc1ccccc1-c1cn2c(CN3CCNCC3)csc2n1)c1ccc2ccccc2n1	17%
c1ccc(-c2[nH]nc3ncc(-c4cn[nH]c4)nc23)cc1	i
O=C(c1cccs1)N1Cc2[nH]cnc2C[C@H]1c1nc(-c2ccc3ccccc3c2)no1	i
C/C=C/C=C/C=C/C(=O)OC1C=C(C=O)C(O)(C(=O)O)C2(C)CCCC(C)(C)C12 (configuration not stated)	71%[activator][10 µM]
COCCn1nnnc1C1CC2(CCOCC2)C(=O)N1CCc1ccc(OC)c(OC)c1 (configuration not stated)	-23%
O=C(NC1CC(=O)N(c2cccc(F)c2)C1)c1ccc(S(=O)(=O)N2CCCC2)cc1 (configuration not stated)	-15%
COc1cccc(N2C(=O)NC(=NC3CCCCC3)C23CCN(CC2CC2)C3)c1 (configuration not stated)	?
CC1OC2OC(=O)C3(C)CC4=C(CO)C5=C(CC(=O)C4(C)C(C1=O)C23)C(C)(C)OC(=O)C5 (configuration not stated)	-13%[10 µM]
CC1OC(OC2CCC3(C)C(CCC4(C)C3CC=C3C5CC(C)(C)CCC5(C(=O)OC5OC(CO)C(O)C(O)C5O)CCC34C(=O)O)C2(C)C)C(O)C(O)C1O (configuration not stated)	14%[10 µM]
CCn1ncc(N2CCCC(CC(=O)Nc3cc(OC)cc(OC)c3)C2)cc1=O (configuration not stated)	3%
COc1ccc(CC(=O)N(C)C2CCc3nnc(C)n3CC2)cc1Cl (configuration not stated)	-3%
Cc1oc2c(c1C(=O)Nc1ccc(Cl)cc1F)C1=NCCN1C=N2	-18%
O=C(CCc1ccc(O)cc1)c1c(O)cc(O)cc1O[C@@H]1O[C@H](CO)[C@@H](O)[C@H](O)[C@H]1O	29%
CCc1ccc(NC(=O)CC2C(=O)N(c3ccc(C)cc3)C(=O)N2CCc2ccncc2)cc1 (configuration not stated)	-10%
CC(=O)N1CCC(N2CC[C@H](c3nc4ccccc4s3)C2)CC1	?
COc1ccccc1CCNC(=O)Cc1c(C)c2cc3c(C)coc3cc2oc1=O	-29%
O=C(NCc1cccc(Cl)c1)c1ccc(NC(=O)N2CC3CCCN3c3ccccc32)cc1 (configuration not stated)	-19%
CCC(Sc1nc2cc(OC)c(OC)cc2c2nc(-c3ccccc3)nn12)C(=O)Nc1cccc(C)c1 (configuration not stated)	-11%
Cc1ccnc(NC(=S)N2CCN(c3ccc(N)cc3)CC2)c1	i
CCOc1ccc(C(=O)NCC(c2ccco2)S(=O)(=O)c2ccc(C)cc2)cc1 (configuration not stated)	-19%
CCOC(=O)C1CCN(C(=O)C(C)(C)NC(=O)Nc2ccc3ccccc3c2)CC1	-8%
O=S(=O)(Nc1ccc(-c2ccccc2)cc1)c1ccc(NCc2ccc(Br)cc2O)cc1	-14%
CCCCOc1cc(C(=O)NCCN(CC)CC)c2ccccc2n1	2%
COCCc1noc(-c2ccccc2OC2CN(C(=O)Cc3c[nH]c4ccccc34)C2)n1	-4%
FC(F)(F)c1ccccc1-c1nc(NCc2ccc(-c3cccc(Cl)c3)cc2)c2ccccc2n1	1%

Three entries from above in another layout.
mol,nsP2pro primary
COc1ccc(NC(=O)c2ccc3c(c2)N(C(=O)c2ccc(OC)cc2)CC3)cc1,-1%
O=S(=O)(Nc1ccc(-c2ccccc2)cc1)c1ccc(NCc2ccc(Br)cc2O)cc1,-14%
CC(C)c1cccc(-n2cnc3cc(C(=O)N4CCCCC4)ccc32)c1,1%

2 of the compounds above, with bars between the fields.
smiles | nsP2pro primary
COc1ccccc1CCNC(=O)Cc1c(C)c2cc3c(C)coc3cc2oc1=O | -29%
O=C(NCc1cccc(Cl)c1)c1ccc(NC(=O)N2CC3CCCN3c3ccccc32)cc1 (configuration not stated) | -19%

The listing continues.
SMILES	nsP2pro primary
CCOC(=O)C1OC1C(=O)N[C@@H](CC(C)C)C(=O)NCCC(C)C (some centres not stated)	?
O=C(NCc1cccc(C(F)(F)F)c1)c1nn(CCOc2ccccc2)c2c1CNCC2	i
C[C@@H]1CN(C(=O)CCSCc2ccccc2)CC[C@@]1(O)C1CCOCC1	0%
COc1ccccc1-n1cc(-c2ccc(C)cc2)nc1S(=O)(=O)CC(=O)Nc1ccccc1C(F)(F)F	-9%
COc1ccc(C(=O)N(Cc2ccccc2)Cc2ccco2)c(O)c1	?
Cc1cc(=O)oc2cc(NC(=O)[C@H](CCC(=O)O)NC(=O)[C@H](CC(C)C)NC(=O)[C@H](CC(C)C)NC(=O)OCc3ccccc3)ccc12	2%
Cc1cc(C)n2ncc(C(=O)Nc3cccc(C(F)(F)F)c3)c2n1	1%
CCOc1cc(C2NC(=O)c3c(sc4c3CCN(C)C4)N2)ccc1OC(=O)c1ccccc1Cl (configuration not stated)	-4%
Cn1cccc1C(=O)N1CC(CO)C2(CCNCC2)C1 (configuration not stated)	i
Cc1cc2c(s1)c1cnn(Cc3ccc(C(F)(F)F)cc3F)c(=O)c1n2C	3%
CC[C@@]1([C@@H]2O[C@@H]([C@H]3O[C@@](O)(CO)[C@H](C)C[C@@H]3C)C[C@@H]2C)CC[C@H]([C@]2(C)CCC3(C[C@H](O)[C@@H](C)[C@@H]([C@@H](C)[C@@H](OC)[C@H](C)C(=O)O)O3)O2)O1 (some centres not stated)	?
C[N+](C)(CCOc1ccccc1)Cc1cccs1	0%
NNc1ccc(NC(=O)c2cccs2)cn1	i
COCCNc1ccc(NC(=O)c2cccs2)cn1	-12%
CCOC(=O)/C=C/c1ccc(O)c(OC)c1	-12%
NC(=O)N1c2ccccc2C=Cc2ccccc21	-1%
COc1ccc2c(c1)C(=O)N(CCc1ccc(S(=O)(=O)NC(=O)NC3CCCCC3)cc1)C(=O)C2(C)C	20%&7%
CN[C@@H]1[C@H](O[C@H]2[C@H](O[C@@H]3[C@@H](O)[C@H](O)[C@@H](N=C(N)N)[C@H](O)[C@H]3N=C(N)N)O[C@@H](C)[C@]2(O)C=O)O[C@@H](CO)[C@H](O)[C@H]1O	-7%[5.1 µM]
CC1CCCCN1S(=O)(=O)c1ccc(C(=O)Nc2sc3c(c2C(N)=O)CC(C)(C)NC3(C)C)cc1 (configuration not stated)	15%
O=C(c1ccccc1Cl)N(Cc1ccco1)Cc1ccco1	-21%

Fetched one by one from the list above (4):
SMILES	nsP2pro primary
CCOC(=O)/C=C/c1ccc(O)c(OC)c1	-12%
CN[C@@H]1[C@H](O[C@H]2[C@H](O[C@@H]3[C@@H](O)[C@H](O)[C@@H](N=C(N)N)[C@H](O)[C@H]3N=C(N)N)O[C@@H](C)[C@]2(O)C=O)O[C@@H](CO)[C@H](O)[C@H]1O	-7%[5.1 µM]
COc1ccc(C(=O)N(Cc2ccccc2)Cc2ccco2)c(O)c1	?
CCOC(=O)C1OC1C(=O)N[C@@H](CC(C)C)C(=O)NCCC(C)C (some centres not stated)	?

Carrying on.
SMILES	nsP2pro primary
CCCCN(CCCC)CCn1cnc2c([nH]c3ccc(OC)cc32)c1=O	-29%
CC1=CC(=O)C2C(C)(C)CCC[C@]2(C)[C@H]1CC[C@H](C)CC(=O)O (some centres not stated)	-2%
CC(=O)C1=C(C)N(c2cccc(C(F)(F)F)c2)C(=O)N[C@H]1c1ccc(C#N)nc1	-2%[5.1 µM]
CNC(=O)c1cc[nH]c1C1CCCN(C(=O)c2ccc(Cn3cncn3)o2)C1 (configuration not stated)	i
CC1OC(OC2C(OC3C(O[C@H]4CC[C@@]5(C)C(CC[C@]6(C)C5C(=O)C=C5C7CC(C)(C)CC(O)[C@]7(C)CC[C@]56C)C4(C)C)OC(C(=O)O)C(O)C3O)OCC(O)C2O)C(O)C(O)C1O (some centres not stated)	2%[5.1 µM]
Cc1ccc(-c2cc(C(=O)NCc3ccc(S(N)(=O)=O)cc3)c3ccccc3n2)cc1C	i
O=C(Cn1c(=O)oc2cc(S(=O)(=O)N3CCCCCC3)ccc21)NCc1ccccc1Cl	-18%
CCOc1ccc2nc(N3CCCC(C(=O)Nc4c(C)cccc4C)C3)sc2c1 (configuration not stated)	-9%
CCc1ccc2oc(C(=O)NCCc3ccc(OC)c(OC)c3)cc(=O)c2c1	-16%
CCc1ccc(N2CC(c3noc(-c4sccc4C)n3)CC2=O)cc1 (configuration not stated)	i
CN1CCN(c2cccc(CNc3nn4c(=O)c5ccccc5nc4s3)c2)CC1	3%
CC(=O)N1CCC(N[C@@H]2CO[C@H](CNS(C)(=O)=O)[C@H]2O)CC1	i
Cc1noc(C)c1-c1ccc2ncnc(NCc3ccc(F)c(F)c3)c2c1	-7%
Cc1ccc([C@H]2CN(C(=O)CN3C(=O)CNC3=O)[C@@H]3C4CCN(CC4)[C@H]23)cc1	-5%
CC1=CC(=O)CC(C)(C)C1/C=C/C(C)O[C@@H]1O[C@H](CO)[C@@H](O)[C@H](O)[C@H]1O[C@@H]1OC[C@](O)(CO)[C@H]1O (some centres not stated)	-4%[10 µM]
COC(=O)Cc1c(C)c2ccc3c(c2oc1=O)CN(Cc1ccccc1OC)CO3	-15%
CC(NC(=O)c1ccc2c(c1)N(Cc1ccc(Cl)cc1)C(=O)CS2)c1ccccc1 (configuration not stated)	-20%
COc1cc(Nc2nc3ccccc3nc2NS(=O)(=O)c2ccc(NC(=O)c3ccc(C)c(OC)c3)cc2)cc(OC)c1	3%
O=C(O)c1cccc(-n2cccc2/C=C2/C(=O)N(Cc3ccc(F)cc3)C(=O)N2Cc2ccc(F)cc2)c1	i
COC(=O)Nc1c(N)nc(-c2nn(Cc3ccccc3F)c3ncc(F)cc23)nc1N	3%
